# Beta cell apopt: beta cell apoptosis inhibition. INS-1E cytokine-induced death, ATP luminescence, 48 h; percent of positive-control rescue, neutral wells zero. protection from apoptosis, % (test concentration not listed). hit rate 0.8% among 300,000. AID 435005;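 active means all replicates at 75% or more, or half of them and the mean; inconclusive means half reach 75% but not the mean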;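 further: 0% = cytokine-treated negative control wells and 100% = positive control rescue; higher means more ATP so stronger rescue from cytokine killing; wells of about 40 µL received 100 nL stock; the first replicate is given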
# Ecoli rRNA inh: inhibitors of bacterial rRNA selective over humanized ribosomes. GFP signal change (wild-type ribosome), % (concentration not given with the values). AID 720706. hit rate 1.6% among 350,000. E. coli WT GFP vs humanized-ribosome RFP mutants, fluorescence, 24 h; active compounds read low; DMSO median 0, no signal -100;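 active means significant combined selectivity score with lowered wild-type GFP, culture density cut under 30%, mutant RFP and density less affected; inactive means any of these conditions unmet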; further: one replicate is shown; some compounds called inactive have numbers as strong as hits
# MLL AF4-AF9 inh: inhibitors of human MLL-AF4/AF9 interaction; AlphaScreen, biotin-AF4 peptide binding to FLAG-AF9; inhibition, % at 10 µM; hit rate 0.47% among 350,000;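 active means every replicate reaching a set inhibition limit, whatever the replicate mean, cut at about 25% in these data; inconclusive means mean inhibition reaches that limit but some replicates miss it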;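 further: 0% = plate neutral control median and 100% = total signal loss; the record names both 10 and 1 µM as test concentration; the first replicate is given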
# Target sequence (P42568 whole entry, looked up): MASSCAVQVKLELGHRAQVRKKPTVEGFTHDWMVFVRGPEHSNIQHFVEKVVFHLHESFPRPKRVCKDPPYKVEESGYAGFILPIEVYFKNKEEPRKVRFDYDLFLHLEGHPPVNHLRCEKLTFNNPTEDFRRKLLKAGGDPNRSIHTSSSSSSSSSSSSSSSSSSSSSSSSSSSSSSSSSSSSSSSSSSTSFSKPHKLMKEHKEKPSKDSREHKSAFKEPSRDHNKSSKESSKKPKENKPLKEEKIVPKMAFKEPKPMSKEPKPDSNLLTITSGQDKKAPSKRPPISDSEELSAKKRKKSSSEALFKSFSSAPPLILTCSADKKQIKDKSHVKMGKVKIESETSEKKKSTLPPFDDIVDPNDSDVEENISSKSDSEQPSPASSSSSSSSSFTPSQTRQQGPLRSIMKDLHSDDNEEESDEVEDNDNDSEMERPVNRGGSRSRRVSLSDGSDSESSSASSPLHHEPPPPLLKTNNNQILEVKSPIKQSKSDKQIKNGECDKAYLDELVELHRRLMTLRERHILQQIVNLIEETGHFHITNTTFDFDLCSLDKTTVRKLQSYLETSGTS
# Bfl-1 A1 inh: inhibitors of the anti-apoptotic protein A1, read as caspase activation; MEF A1-2A-BIM cells, Caspase-Glo 3/7 luminescence, 3 h; percent of clofoctol response, vehicle zero; caspase activation, % (concentration not given with the values); hit rate 0.066% among 330,000; AID 2462;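 active means over half of replicate activation scores above 10%, or exactly half above 10 with the replicate mean above 10; inconclusive means replicate mean below 10 yet half the replicates above 10; inactive means over half of replicates below 10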;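 further: wells of about 30 µL received 50 nL stock; many hits fall short of the cut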
# T cruzi inh: blocks replication of Trypanosoma cruzi; T. cruzi beta-gal in NIH3T3, luminescence, 90 h; inhibition, % (test concentration not listed); hit rate 1.4% among 300,000; AID 1885;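 active means mean inhibition across valid replicates above about 55%, limit read from the data; inconclusive means mean below that limit but half or more replicates reach it; inactive means mean below it, under half of replicates reach it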;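 further: signal also drops with host cell toxicity which is not excluded here; 0% = plate median of DMSO wells and 100% = zero luminescence signal; higher percent means less beta-gal luminescence so fewer parasites; stock transfer was 50 nL into about 50 µL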
# Ecoli growth: blocks Escherichia coli growth; hit rate 0.21% among 330,000; OD600 absorbance (no concentration beside the values); OD600, 23 h; active compounds read low;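 active means OD600 absorbance below the run mean of sample wells minus 3.6 SD, in any replicate, cut at about 0.56 in these data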;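 further: stock transfer was 300 nL into about 60 µL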
# FGF22 binding: FGF22 (human) thermal shift binding. calls only at 9.99 µM. hit rate 1.5% among 340,000. Q9HCT0. recombinant FGF22 thermal shift, SYPRO orange fluorescence; percent of sucrose octasulfate shift, DMSO zero;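 active means melting point raised past a set limit in the mean and every replicate; inconclusive means no clear call; three in four hits are not shown here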
# Target sequence (Q9HCT0 whole entry, looked up): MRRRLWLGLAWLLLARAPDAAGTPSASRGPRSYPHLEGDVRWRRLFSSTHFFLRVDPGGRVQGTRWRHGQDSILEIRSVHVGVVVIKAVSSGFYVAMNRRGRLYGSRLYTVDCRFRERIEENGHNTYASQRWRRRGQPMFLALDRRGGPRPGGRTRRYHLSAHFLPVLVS
# UCH37 inh: blocks the human deubiquitinase UCH37 | Q9Y5K5 | purified proteasome/UCH37, Ub-AMC cleavage fluorescence | inhibition, % (no concentration beside the values) | hit rate 0.33% among 330,000 | AID 588478;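 active means mean of two replicates above 20%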;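 further: 0% = compound-free wells with enzyme and 100% = wells lacking proteasome; stock transfer was 100 nL into about 20 µL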
# Target sequence (Q9Y5K5 whole entry, looked up): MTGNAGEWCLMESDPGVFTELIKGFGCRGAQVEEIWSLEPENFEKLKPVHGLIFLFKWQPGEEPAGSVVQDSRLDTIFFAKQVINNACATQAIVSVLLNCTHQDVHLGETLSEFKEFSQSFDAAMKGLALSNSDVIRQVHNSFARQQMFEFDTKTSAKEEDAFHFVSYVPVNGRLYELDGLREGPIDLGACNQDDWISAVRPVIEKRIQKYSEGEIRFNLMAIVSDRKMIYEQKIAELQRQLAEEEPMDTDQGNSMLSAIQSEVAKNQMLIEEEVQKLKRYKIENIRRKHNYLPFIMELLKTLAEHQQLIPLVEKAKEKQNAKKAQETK
#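 Test system – human UCH37 enzyme supplied as purified proteasome complex · Incubation – 30 min preincubation with enzyme, 25 min cleavage at room temperature · Detection – AMC fluorescence from Ub-AMC cleavage, excitation 355 nm, emission 460 nm · Benchmarks – no-proteasome wells (full inhibition) and compound-free wells (no inhibition)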
# Ecoli rRNA inh OD600: also measured in Ecoli rRNA inh; calls as there; OD600 change, %; measured here: OD600 growth;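 optical density of the mix in the first replicate; 0 = DMSO median and -100 = no signal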
# Ecoli rRNA inh RFP: further read-out of Ecoli rRNA inh, marked with its call; RFP signal change, %; measured here: RFP humanized mutant strains;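 first replicate; 0 = DMSO median and -100 = no signal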
# * hit, by the source's call; i = inactive; ? = inconclusive; nt = not tested or not shown. Not all compounds are listed. The share of hits here may be higher or lower than overall.
canonical_smiles	T cruzi inh	Ecoli rRNA inh OD600	Beta cell apopt	FGF22 binding	Ecoli rRNA inh RFP	Ecoli rRNA inh	Ecoli growth	MLL AF4-AF9 inh	Bfl-1 A1 inh	UCH37 inh
Cc1cc(C)c(C(=O)C(C)OC(=O)C2=COCCO2)cc1C (centres undefined)	-15	-2	5	i	-3.2	-5	0.71	0.2	-0.3	4.4
O=C(NCC1CCCO1)C(=O)NCC(c1ccco1)N1CCN(c2ccccc2)CC1 (centres undefined)	-5	10	-1	i	6.4	4	0.69	-2.7	0.1	2.7
CC(C)NC(=O)COC(=O)c1cncc(Br)c1	-3	15	-3	i	2.6	12	0.7	-2.1	-0.2	3.5
O=C1NC(c2ccccc2)Oc2ccccc21 (centres undefined)	0	15	-6	i	-0.1	12	0.61	-1.2	0.7	-0.1
Cc1ccccc1CN1CCN(CC(=O)NCc2ccccc2)C1=O	0	-2	-4	i	-7.7	-1	0.73	-0.2	0.9	1.7
Cc1ccc(-c2nnc(N(C)C(=O)c3cccnc3)s2)cn1	-8	nt	-2	nt	nt	nt	0.69	nt	-1.4	-0.4
Cc1ccc(-c2nn[nH]n2)o1	-9	nt	-1	nt	nt	nt	0.72	nt	-0.8	5.6
O=C(Nc1ccc(N2CCOCC2)c(Cl)c1)c1ccc(Cl)cc1	28	-2	4	i	-2.7	-10	0.7	-5.9	-0.3	2.1
O=C(COc1ccc(Cl)cc1)NNC(=O)c1ccc2c(=O)n3c(nc2c1)CCC3	-3	-2	2	i	-2.6	-6	0.67	?	0.9	5.3
CC1=NC(C)(C)Cc2cc(C)c(C)cc21	26	5	-13	i	-7.2	9	0.66	0.0	0.0	-0.9
Cc1ccc(C2NC(C(=O)O)CS2)cc1 (centres undefined)	-6	19	nt	nt	2.9	21	0.71	-4.0	-0.5	-0.2
CC1=C(C(=O)Nc2ccc(C)cc2C)C(c2ccc(C)o2)NC(=O)N1 (centres undefined)	-13	nt	-2	nt	nt	nt	0.69	nt	-0.6	1.0
Cc1ccc(C2=C(O)c3ccccc3C(=O)C2=O)cc1	-13	-4	nt	i	-1.5	-9	0.67	-1.5	-0.7	5.6
CC(C)CN(CCNC(=O)CC1Oc2ccccc2NC1=O)CC(C)C (centres undefined)	-6	-7	0	i	-4.9	-2	0.73	-49	0.1	3.6
O=C(Cc1ccc(-n2c(=O)c3sccc3n(Cc3ccc(F)cc3)c2=O)cc1)NCc1ccco1	-24	2	-9	i	3.8	4	0.7	-4.3	1.1	5.4
COc1ccc(/C=C/C(=O)c2ccc3c(c2)OCO3)c(OC)c1	-18	-27	6	i	-5.9	-27	0.72	9.3	-6.6	1.3
COc1ccccc1N1CCN(/N=C/c2cc(OC)c(OC(C)=O)c(OC)c2)CC1	3	9	nt	i	0.1	6	nt	1.0	-0.4	nt
Cc1cc(C)c(C(N)=O)c(Nc2cccc(Cl)c2C)n1	-14	-10	-5	nt	-4.4	-14	0.62	-4.5	0.1	1.4
O=S(=O)(O)c1ccc(Cl)c(Cl)c1	nt	6	nt	i	1.7	17	0.65	6.0	nt	1.8
CC(C)CNC(=O)C(=O)NC1CCCC1	-14	nt	-3	nt	nt	nt	0.72	nt	-0.1	0.7
CCOC(=O)C(C(C)=O)c1nc(C)nc2c1nnn2Cc1ccccc1Cl (centres undefined)	8	-4	nt	nt	-2.9	4	0.68	nt	nt	-13
Cc1cc(C(=O)C(=O)N(C)C)c(C)n1-c1ccc(Cl)cc1	-8	6	-6	i	-0.6	1	0.7	3.6	-3.7	2.5
CC(C)c1ccc(NC(=O)NCc2ccccn2)cc1	-7	-4	4	i	-1.1	2	0.72	1.9	-0.7	1.7
O=C(NCC1CCCO1)C(c1ccc(F)cc1)N(CCCN1CCOCC1)C(=O)c1ccc(-c2ccccc2)[nH]1 (centres undefined)	-6	-8	-2	i	2.5	-11	0.71	3.9	0.6	1.0
COCCCn1c(SCC(=O)NC2CCCCC2)nnc1-c1ccncc1	-14	nt	-7	nt	nt	nt	0.71	nt	1.9	-0.6
O=C(c1ccc(-c2nnc(-c3ccccc3)o2)cc1)N1CCCCCC1	-1	nt	3	nt	nt	nt	0.68	nt	-10.0	0.4
O=C1CC(c2ccccc2)CC(O)=C1C=Nc1ccccc1Cl (centres undefined)	-33	8	-27	i	-3.5	1	0.66	-1.6	-0.7	-14
Cc1cc(C(=O)NCc2cccs2)c(C)o1	-10	nt	-1	nt	nt	nt	0.68	nt	0.3	4.6
COc1ccc(N2CCN(C(=O)COc3ccc4c(C)cc(=O)oc4c3)CC2)cc1	2	-32	1	i	-2.2	-39	0.71	2.9	0.3	-38
C[C@@H](C(=O)Nc1ccc2ccccc2c1)[C@@H]1C[C@@]1(C)[C@@H](NC(=O)c1cccnc1)c1ccccc1	14	-18	10	i	9.7	-8	nt	nt	-0.1	0.6
CCOc1ccccc1CNC(=O)C1CCC(=O)N1C(C)C (centres undefined)	-1	nt	-2	nt	nt	nt	0.72	nt	-0.1	-0.4
Cn1nc(C(F)(F)F)c(-c2ccccc2)c1NC(=O)c1nccnc1C(=O)O	-17	7	1	i	1.6	26	0.67	-0.3	0.2	2.9
CCn1c(O)c(N=NC(=O)CNC(=O)/C=C/c2ccccc2)c2ccccc21	15	-1	1	i	-4.4	-2	0.66	1.6	0.9	4.2
O=C(Nc1ccccc1)N1N=C(c2cccs2)CC1c1cccs1 (centres undefined)	4	nt	9	nt	nt	nt	0.68	nt	-1.9	-50
CC(C)=CCc1c(C)nc2ccccc2c1C(=O)O	-23	nt	-2	nt	nt	nt	0.7	nt	0.0	3.8
COc1ccc(OC)c(S(=O)(=O)N2CCC3(CC2)OCCN3S(=O)(=O)c2ccccc2)c1	2	-11	nt	i	2.8	-8	0.63	-4.5	0.8	5.3
COc1ccc(CCNC(=O)Cc2ccc(NS(=O)(=O)c3ccc(F)cc3)cc2)cc1OC	nt	-10	nt	i	-1.0	-8	0.63	-1.7	nt	2.5
COc1ccc(-c2ccc(SCC(=O)NCc3ccc4c(c3)OCO4)nn2)cc1OC	7	-5	-10	i	5.5	10	0.73	-2.8	0.9	-0.2
O=C(NC1CCCC1)C(c1ccccc1)N(Cc1ccccc1)C(=O)c1csnn1 (centres undefined)	10	nt	-3	i	nt	nt	0.65	3.1	0.6	0.6
CCOC(=O)N1CCC(Nc2c(N3CCN(c4cc(Cl)ccc4C)CC3)c(=O)c2=O)CC1	12	-27	4	i	5.2	-7	0.73	-1.5	0.4	2.0

# Filtered by structure: the compounds so far with a COOH group.
canonical_smiles	T cruzi inh	Ecoli rRNA inh OD600	Beta cell apopt	FGF22 binding	Ecoli rRNA inh RFP	Ecoli rRNA inh	Ecoli growth	MLL AF4-AF9 inh	Bfl-1 A1 inh	UCH37 inh
Cc1ccc(C2NC(C(=O)O)CS2)cc1 (centres undefined)	-6	19	nt	nt	2.9	21	0.71	-4.0	-0.5	-0.2
Cn1nc(C(F)(F)F)c(-c2ccccc2)c1NC(=O)c1nccnc1C(=O)O	-17	7	1	i	1.6	26	0.67	-0.3	0.2	2.9
CC(C)=CCc1c(C)nc2ccccc2c1C(=O)O	-23	nt	-2	nt	nt	nt	0.7	nt	0.0	3.8

# Next compounds follow.
canonical_smiles	T cruzi inh	Ecoli rRNA inh OD600	Beta cell apopt	FGF22 binding	Ecoli rRNA inh RFP	Ecoli rRNA inh	Ecoli growth	MLL AF4-AF9 inh	Bfl-1 A1 inh	UCH37 inh
CCOC(=O)C1C(c2ccc(C(=O)O)cc2)NC(=O)NC1(O)C(F)(F)F (centres undefined)	-17	-9	-1	i	-2.8	3	0.69	0.3	-0.1	1.1
CCN(CC)S(=O)(=O)c1cccc(C(=O)Oc2cccnc2)c1	-2	nt	-9	nt	nt	nt	0.78	nt	0.1	3.4
CC(C)CC(=O)NC(=S)Nc1ccc(N2CCOCC2)c(Cl)c1	-6	-44	-4	i	-5.9	-29	0.69	4.6	0.3	1.8
COC(=O)c1ccc2c(=O)n(Cc3ccco3)c(SCC(=O)Nc3cc(C)on3)nc2c1	3	3	24	i	0.5	3	0.65	-1.1	0.2	-1.2
CCOCCCNC(=O)C(NC(=O)Cc1cccs1)c1ccc(Cl)cc1 (centres undefined)	5	-7	-7	i	1.0	5	0.63	-1.5	-0.4	-1.6
CCc1cccc(NC2c3ccccc3C(=O)N2c2cccnc2)c1 (centres undefined)	-11	-43	4	i	-11	-20	0.72	-3.5	-0.1	2.5
O=C(CNCC1CCCO1)N1CCCCCC1 (centres undefined)	-13	12	2	nt	0.1	20	0.72	-0.4	0.2	2.4
CCCCN(CCCNC(=O)Cn1ncc2ccsc2c1=O)Cc1ccccc1	7	0	1	i	-2.7	6	0.65	1.4	0.9	0.1
COCCn1nnnc1CN1CCC(Cc2ccccc2)CC1	-7	nt	-3	nt	nt	nt	0.67	nt	0.9	0.7
COc1ccc(NC(=O)CN(C)S(=O)(=O)c2cccs2)cc1	-20	nt	0	nt	nt	nt	0.7	nt	0.5	1.4
COc1ccc(NC(=O)c2ccccn2)cc1OC	-15	nt	3	nt	nt	nt	0.69	nt	-2.1	6.3
CCOc1ccc(-c2cc(C(=O)Nc3ccc4c(c3)OCCO4)c3ccccc3n2)cc1	20	nt	30	nt	nt	nt	0.72	nt	-3.6	0.1
Cc1ccc(-c2cc(C(=O)N3CCOCC3)c3cc(C)ccc3n2)cc1	7	-8	-2	i	3.9	-2	0.71	6.1	-0.7	-34
CCC(=O)c1ccc(OCC(=O)N(CC)CC(=O)Nc2ccccc2OC)cc1	nt	0	-2	i	2.1	0	0.63	4.0	0.6	4.1
CCOC(=S)SCc1cn2ccc(C)cc2n1	-10	7	-10	i	5.5	23	0.62	9.2	-0.3	2.8
O=C(NNC(=O)c1ccc(-c2ccccc2)cc1)c1ccccc1	14	10	-1	i	3.3	7	0.69	2.4	-6.2	5.2
CCCNC(=O)c1cc2c(C(F)(F)F)nn(C)c2s1	-17	nt	nt	nt	nt	nt	0.73	nt	0.2	1.3
COc1ccccc1N1C(=O)c2ccc(C(=O)Nc3cccc(C(C)=O)c3)cc2C1=O	-16	5	-10	i	6.6	14	0.7	-0.4	0.3	2.5
CCCOc1ccccc1OCC(=O)Nc1ccc(S(=O)(=O)N2CCCCC2)cc1	19	-17	2	i	8.6	-6	0.65	3.4	-0.2	0.1

# Another view of some results above.
# Below each SMILES: T cruzi inh, Ecoli rRNA inh OD600, Beta cell apopt, FGF22 binding, Ecoli rRNA inh RFP, Ecoli rRNA inh, Ecoli growth, MLL AF4-AF9 inh, Bfl-1 A1 inh, UCH37 inh
CCC(=O)c1ccc(OCC(=O)N(CC)CC(=O)Nc2ccccc2OC)cc1
→ nt, 0, -2, i, 2.1, 0, 0.63, 4.0, 0.6, 4.1
O=C1NC(c2ccccc2)Oc2ccccc21 (centres undefined)
→ 0, 15, -6, i, -0.1, 12, 0.61, -1.2, 0.7, -0.1

# Source: PubChem (several laboratories)
